# High-throughput results as filed in PubChem BioAssay.
# CtBP-E1A inh: CtBP/E1A binding inhibition; 340,000 tested, 0.49% active; AID 651724; activity change, % (no concentration beside the values); AlphaScreen GST-E1A/His-CtBP binding, 1536-well; stronger effect = lower value; control for the full effect not named in the record; in the data active means activity change below about -65%; inconclusive means about -30% to -65%; inactive means above about -30%; note: % is set by controls: 0 for no effect and ±100 for the full control effect; compound concentration not given in the record
#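 Steps: dispense buffer (Tris pH 8.0, NaCl 300 mM, TCEP 1 mM, BSA, Tween 20); add 5X protein mix (GST-E1A, His-CtBP, 125 nM each); pin 23 nL compound; 2 h at 37 °C, dark; add 5X beads (50 ug/mL); 1 h; read.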
# gsp antagonist: gsp mutant antagonism; gsp-mutant cells, cAMP HTRF, 30 min; control for the full effect not named in the record; Potency, µM (top dose mostly 76.9 µM), for the others: top-dose activity change, negative = inhibition, actives largely listed as inhibitors; 340,000 tested, 0.4% active; AID 624288; active = falling curve of any shape with a large fitted effect; inconclusive = falling curve, mostly with a smaller effect; inactive = flat or rising curve; cell line not stated here;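 note: intracellular cAMP measured with PDE inhibitor Ro 20-1724 present during compound exposure; potency is the fitted concentration of half-maximal effect; % is set by controls: 0 for no effect and ±100 for the full control effect; nearly all actives have a fitted effect of over 65% in size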
#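 Cells, 2000/well, grown 16–24 h in DMEM 10% FBS with 0.5 mg/ml G418, then compounds plus […] (300 uM addition stock), 30 min at 37C. cAMP read by HTRF (cAMP-d2 and anti-cAMP antibody-K in lysis buffer) after 30 min RT.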
# Menin MLL FP FL: displaces fluorescein MLL peptide from human menin; 290,000 tested, under 10 active; Fluorescence polarization, fluorescein-MLL peptide displacement from menin; AID 1766; FP activity change, % at 61.4 µM; inconclusive = falling polarisation curve, or a change in total fluorescence; inactive = total fluorescence flat and polarisation flat or rising; no compound was filed as active; the % refers to the polarisation; negative = inhibition;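 note: % of control where 0% means no effect; inhibitors lower the polarisation; unlabelled MLL peptide was the positive control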
# Sfp inh: Sfp phosphopantetheinyl transferase inhibition. AID 1490. 310,000 tested, 3.5% active. Biochemical Sfp PPTase activity, qHTS. Potency, µM, inactives show max response, negative = inhibition, usual class: inhibitors; active = well fitted inhibition curve with a large enough effect; inconclusive = small, poorly fitted or top-dose-only effect, or another doubt; inactive = no such curve, though single readings can be large or run the other way;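 note: the enzyme is Sfp with the accession as filed and its product quenches rhodamine fluorescence; potency is the fitted concentration of half-maximal effect; 0% = enzyme reaction without inhibitor and -100% = no enzyme wells; top concentration of the series not given in the record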
#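 Step 1, compound plus 15 nM Sfp-PPTase, 15 min, room temperature. Step 2, add rhodamine-CoA (5 uM) and BHQ-2-YbbR (12.5 uM). Step 3, read 525/598 nm fluorescence at 0 and 30 min.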
# ClpP mod: qHTS Assay for Activators of ClpP; purified B. subtilis ClpP, FRET peptide cleavage, 20 min; 340,000 tested, 1.9% active; ATP-dependent Clp protease proteolytic subunit (Bacillus subtilis (strain 168)), P80244; Potency, µM (highest dose often 57.5 µM), for the others: at the top dose activity change, negative = active; active = well fitted falling curve with a large enough effect; inconclusive = small, poorly fitted or top-dose-only effect; inactive = no such curve, though single readings can be large or run the other way; note: potency is the fitted concentration of half-maximal effect; the source files actives as falling curves though it sought activators and does not explain the sign; nearly all actives have a fitted effect of over 65% in size; many hits overshoot -100%
# Target sequence (P80244 whole entry, looked up): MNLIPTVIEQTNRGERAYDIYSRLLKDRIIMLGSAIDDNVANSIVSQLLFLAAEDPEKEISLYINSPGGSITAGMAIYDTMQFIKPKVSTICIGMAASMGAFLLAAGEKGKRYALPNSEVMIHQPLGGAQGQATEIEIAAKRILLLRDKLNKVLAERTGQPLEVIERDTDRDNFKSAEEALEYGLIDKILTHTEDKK
#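 FRET quenching reversal measured ClpP activation: 10 microg/mL B. subtilis ClpP at pH 8 with the FRET-FV decapeptide, read at 430 nm after 320 nm excitation. The 20-min minus 0-min signal was scaled between DMSO/no-enzyme wells and ADEP (5.8 microM final).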
# TRPV1 PAM: human TRPV1 potentiation | TRPV1-expressing cells, Fluo-8 calcium influx, capsaicin EC20 potentiation; host cell line not named in the record; control for the full effect not named in the record | 320,000 tested, 0.02% active | potentiation, % at 8.33 µM; active means potentiation above 80%; inconclusive means 30% to 80%; inactive means below 30%; note: 0% is about no effect
# Target sequence (Q8NER1 whole entry, looked up): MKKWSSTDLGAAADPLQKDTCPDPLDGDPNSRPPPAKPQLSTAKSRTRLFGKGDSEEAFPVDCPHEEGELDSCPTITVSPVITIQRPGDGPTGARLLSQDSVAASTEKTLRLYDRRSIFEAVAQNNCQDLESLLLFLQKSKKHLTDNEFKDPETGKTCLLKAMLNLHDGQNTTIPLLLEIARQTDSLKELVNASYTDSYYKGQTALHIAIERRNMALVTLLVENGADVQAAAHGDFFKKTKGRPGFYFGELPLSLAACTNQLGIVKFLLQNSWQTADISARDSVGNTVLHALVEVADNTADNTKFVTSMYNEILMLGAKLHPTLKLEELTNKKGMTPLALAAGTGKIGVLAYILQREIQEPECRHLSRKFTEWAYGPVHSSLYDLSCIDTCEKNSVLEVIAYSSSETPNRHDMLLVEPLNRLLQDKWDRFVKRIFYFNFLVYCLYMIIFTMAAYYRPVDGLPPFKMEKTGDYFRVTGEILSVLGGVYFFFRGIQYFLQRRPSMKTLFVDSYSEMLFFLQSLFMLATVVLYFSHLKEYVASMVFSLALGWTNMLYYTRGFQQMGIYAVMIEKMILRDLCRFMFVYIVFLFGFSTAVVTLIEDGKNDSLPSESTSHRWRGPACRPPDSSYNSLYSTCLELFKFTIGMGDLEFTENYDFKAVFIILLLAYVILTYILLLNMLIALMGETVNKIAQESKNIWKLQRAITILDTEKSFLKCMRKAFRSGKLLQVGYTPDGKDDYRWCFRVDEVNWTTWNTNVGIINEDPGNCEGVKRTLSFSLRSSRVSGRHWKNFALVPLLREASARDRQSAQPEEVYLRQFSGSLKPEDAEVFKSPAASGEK
#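 Fluo-8 calcium influx in TRPV1-expressing cells, kinetic read (ex 480/em 520 nm). Compound added and read 3 min for agonist activity, followed by capsaicin at EC20 final and 2 min further read for enhancement.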
# gsp ag: agonists of gsp mutant (McCune-Albright syndrome); gsp mutant cells, cAMP HTRF, 30 min; control for the full effect not named in the record; 340,000 tested, 0.13% active; Potency, µM (series often up to 76.9 µM), for inactives: at the highest dose activation (cAMP increase), hits mostly activators; active = well fitted activation curve with a large enough effect; inconclusive = small, poorly fitted or top-dose-only effect, or another doubt; inactive = no such curve, though single readings can be large or run the other way; cell line not stated here;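 note: phosphodiesterase inhibitor Ro 20-1724 added with compounds to block cAMP breakdown; potency is the fitted concentration of half-maximal effect; nearly all actives have a fitted effect of over 60% in size; about a fifth of the inactives were tested at one dose only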
#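 Cells in DMEM/10% FBS with G418 were pretreated with compounds in DMSO plus […] (300 uM stock) for 30 min at 37C. cAMP was measured by HTRF (cAMP-d2 plus anti-cAMP antibody-K) after 30 min at room temperature.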
# The depositor's hits bear a star; ? = inconclusive; . = no result given; & = joins results of further samples; [ ] = remark or other dose.
nr	molecule	CtBP-E1A inh	gsp antagonist	Menin MLL FP FL	Sfp inh
1	O=C(O)C1CCCCC1C(=O)Nc1cccc(Br)c1 (stereo not given)	5	-3%	.	.
2	COCCNC(=O)c1cnn2c1NC(c1ccco1)CC2C(F)(F)F (stereo not given)	-5	16%	2.1	14%
3	CC(Nc1n[nH]c(=O)[nH]c1=O)C(=O)N/N=C/c1cccs1 (stereo not given)	-14	.	0.4	20%
4	Cc1c(NC(=O)CCC2CCCCC2)c(=O)n(-c2ccccc2)n1C	8	3%	3.1	-9%
5	Cc1ccc(C(=O)c2coc3ccc(O)c(CN(C)C)c23)cc1	.	19%	-0.2	-11%
6	COc1ccccc1C(=O)C1CCCN(C(=O)c2ccccc2Cl)C1 (stereo not given)	7	-5%	.	4%
7	O=C(Nc1cccc(Cl)c1)C1CCCN(S(=O)(=O)c2ccc(F)cc2)C1 (stereo not given)	9	-10%	-2.8	-9%
8	Cc1cccc(C)c1OCC(=O)NCc1nnc(SCC(=O)NC2CCCCC2C)n1C (stereo not given)	11	7%	3.6	18%
9	Cc1ccc(N2CCN(S(=O)(=O)c3nnc(NC(=O)c4ccccc4)s3)CC2)cc1	0	-4%	5.7	7%
10	COc1ccc(C2C(C(C)=O)=C(O)C(=O)N2Cc2ccccc2)c(OC)c1 (stereo not given)	3	-6%	3.7	-1%
11	Cc1cc(Cl)c2oc(C(=O)N3CCC(O)(c4ccccc4)CC3)c(C)c2c1	.	-7%	-0.4	3%
12	CN(C)/C=C(\C#N)S(=O)(=O)C(C)(C)C	-22	-2%	-2.3	10%
13	CC(=O)NCc1ccc(S(=O)(=O)NC(C(=O)O)C(C)C)cc1 (stereo not given)	3	9%	-8.2	5%
14	O=C(O)c1cccc2c(-c3ccccc3)c(-c3ccccc3)[nH]c12	-4	-7%	-1.0	-2%
15	O=C(C[C@H]1C(=O)N(c2ccccc2)C[C@@H]1Cc1ccccc1)Nc1ccccc1	5	.	.	.

nr	ClpP mod	TRPV1 PAM	gsp ag
1	1.5%	20	2%
2	-1.1%	-5	12%
3	.	-2	11%[15.4 µM]
4	0.9%	6	-56%[inhibitor]
5	-3.2%	6	-13%
6	-0.8%	-3	18%
7	0.0%	-1	15%
8	0.0%	-1	-26%
9	-2.6%&-1.8%	-2	13%
10	-0.8%	-3	5%
11	1.3%	2	0%
12	.	16	-59%[inhibitor]
13	0.5%	-3	1%[15.4 µM]
14	.	6	8%[15.4 µM]
15	1.2%&-2.7%	.	-14%

# Ordered by SMILES length (lowest first): some entries from above.
nr	molecule	CtBP-E1A inh	gsp antagonist	Menin MLL FP FL	Sfp inh
1	O=C(O)C1CCCCC1C(=O)Nc1cccc(Br)c1 (stereo not given)	5	-3%	.	.
2	COCCNC(=O)c1cnn2c1NC(c1ccco1)CC2C(F)(F)F (stereo not given)	-5	16%	2.1	14%
13	CC(=O)NCc1ccc(S(=O)(=O)NC(C(=O)O)C(C)C)cc1 (stereo not given)	3	9%	-8.2	5%
14	O=C(O)c1cccc2c(-c3ccccc3)c(-c3ccccc3)[nH]c12	-4	-7%	-1.0	-2%
8	Cc1cccc(C)c1OCC(=O)NCc1nnc(SCC(=O)NC2CCCCC2C)n1C (stereo not given)	11	7%	3.6	18%
9	Cc1ccc(N2CCN(S(=O)(=O)c3nnc(NC(=O)c4ccccc4)s3)CC2)cc1	0	-4%	5.7	7%
15	O=C(C[C@H]1C(=O)N(c2ccccc2)C[C@@H]1Cc1ccccc1)Nc1ccccc1	5	.	.	.

nr	ClpP mod	TRPV1 PAM	gsp ag
1	1.5%	20	2%
2	-1.1%	-5	12%
13	0.5%	-3	1%[15.4 µM]
14	.	6	8%[15.4 µM]
8	0.0%	-1	-26%
9	-2.6%&-1.8%	-2	13%
15	1.2%&-2.7%	.	-14%

# Carrying on:
nr	molecule	CtBP-E1A inh	gsp antagonist	Menin MLL FP FL	Sfp inh
16	Cc1nc(SC2CCOC2=O)c2c(C)c(C)sc2n1 (stereo not given)	-1	1%	-2.0	1%
17	Cc1ccc(N2CCN(/N=C/c3ccccc3[N+](=O)[O-])CC2)cc1	?	-1%	3.1	7%
18	Cc1cc(NC(=O)c2ccc(Br)o2)ccc1NC(=O)c1ccco1	1	-10%	1.2	10%
19	CCOc1ccc(S(=O)(=O)Nc2ccc(OC)nc2)cc1	22	-7%	-0.3	12%
20	c1ccc2c(c1)Nc1ccncc1S2	0	-9%	4.4	-9%
21	COc1cccc(CN2CCC(Oc3ccc(C(=O)N4CCCCC4)cc3)CC2)c1	-11	9%	.	7%
22	c1ccc2c(c1)CCN2CCN1CCc2ccccc21	2	-7%	2.1	-5%
23	O=C(Cc1cccc(NC(=O)C2CCN(C(=O)CCc3ccccc3)CC2)c1)Nc1cccc(C(=O)N2CCCC2)c1	0	-1%	.	.
24	CCn1c(CN(C)c2ccccc2)nc2ccccc21	-10	-1%	-0.5	3%
25	COc1ccc(C(=O)Nc2ccc(C)cn2)c(OC)c1	-7	-1%	-2.2	5%
26	CCc1ccc(C(C)NC(=O)/C=C/c2ccc(Br)cc2)cc1 (stereo not given)	18	-2%	2.0	1%
27	CCn1c(/C=C/c2ccccc2Cl)nc2ccccc2c1=O	-26	-15%	-3.3	-11%
28	COc1cc(NC(=O)COc2cc3oc(=O)cc(C)c3cc2Cl)cc(OC)c1OC	.	1%	-3.0	-11%
29	O=C(C/C=N/OCc1c(Cl)cccc1Cl)c1ccc(Cl)cc1	2	?	3.1	12%
30	CC(=O)N1CCc2c(sc(NC(=O)C3CC3)c2-c2nc3ccccc3s2)C1	?	?	?	45µM*

nr	ClpP mod	TRPV1 PAM	gsp ag
16	0.8%	19	20µM*
17	0.7%	-5	-6%
18	.	2	11%
19	.	9	?
20	-17%	3	2%[15.4 µM]
21	-0.2%	-4	19%
22	-1.2%	4	6%
23	-0.6%	-6	1%
24	-2.5%	?	-9%[15.4 µM]
25	0.5%&-2.1%	15	-3%
26	1.2%	-6	25%
27	.	6	11%
28	-5.1%	8	-23%
29	2.2%	9	6%
30	-22%	-11	-35%[inhibitor]

# (further entries)
nr	molecule	CtBP-E1A inh	gsp antagonist	Menin MLL FP FL	Sfp inh
31	COC(=O)[C@H](Cc1ccccc1)NS(=O)(=O)c1ccc(F)cc1Br	6	3%	.	.
32	COc1ccc(OC)c(NC(=O)CSc2sc3c(O)cc(=O)[nH]c3c2C#N)c1	-9	2%	19	-24%
33	O=[N+]([O-])c1ccc(S(=O)(=O)N(CC(O)CN2CCCCC2)c2ccccc2)cc1 (stereo not given)	-18	10%	.	6%
34	CCCCN(Cc1ccccc1)S(=O)(=O)c1ccc2c(c1)n(C)c(=O)c(=O)n2C	-2	1%	-3.0	15%
35	COCCn1nnnc1CN1CCC(NC(=O)Nc2cccc(OC)c2)CC1	-1	6%	-0.6	3%
36	CCN(CC)CC#CCC(C)(c1ccccc1)c1ccccc1	-3	10%	-1.4	-8%
37	COCCc1ncc(CN2CCC(C(=O)Nc3ccc(-n4cccn4)cc3)CC2)cn1	11	19%	.	17%
38	CC1(C)Cc2ccccc2C(NNC(=O)c2cccnc2)=N1	3	3%	2.3	-1%
39	O=C(NC(CO)c1ccccc1)c1ccco1 (stereo not given)	4	0%	-2.1	3%
40	Cc1ccc(C)c(NC(=O)CN(C)C(=O)c2ccc(-c3cccc(C(F)(F)F)c3)o2)c1	10	-9%	.	.
41	Cc1ccc(C(=O)C(NC(=O)c2ccco2)N2CCOCC2)cc1 (stereo not given)	8	-1%	4.4	2%
42	COc1ccc(CCNC(=O)CSc2nncn2N)cc1OC	8	-2%	1.3	6%
43	Cc1cccn2c(CN(C)CCC3CCCCO3)c(C(=O)N3CCCCC3)nc12 (stereo not given)	-9	8%	-7.7	-6%
44	NC(N)=NN=C1CCCCCCCCCCC1	2	15%	4.5	-14%
45	CC(C)(C)C1CCc2c(sc(NC(=O)C3CCCO3)c2C(N)=O)C1 (stereo not given)	0	-11%	0.3	-13%

nr	ClpP mod	TRPV1 PAM	gsp ag
31	-0.4%	.	.
32	.	-2	-9%[15.4 µM]
33	.	0	-2%[15.4 µM]
34	3.3%	.	0%
35	-1.2%	-3	0%
36	-1.2%	-14	-28%
37	-1.5%	1	-7%
38	18µM*	-5	-24%
39	-1.3%	0	-11%
40	19%	-11	?
41	2.1%	-3	-24%
42	0.0%	0	0%
43	.	-5	3%[15.4 µM]
44	.	.	3%
45	-7.5%	-5	2%

# (continued)
nr	molecule	CtBP-E1A inh	gsp antagonist	Menin MLL FP FL	Sfp inh
46	Cc1ccc(C)c(NC(=O)CN(C)C(=O)Cc2coc3cc(C)c(C)cc23)c1	0	-10%	.	.
47	Cc1cccc(C(=O)Nc2ccc(C(=O)N3CCCCC3C)cc2)c1 (stereo not given)	3	-6%	-2.5	14%
48	COc1ccc2[nH]c(=O)c(CN(CC3CCCO3)S(=O)(=O)c3ccccc3)cc2c1 (stereo not given)	?	-3%	-2.2	13%
49	O=C(NCCNc1ccc([N+](=O)[O-])cc1)c1ccco1	1	7%	-0.7	7%
50	COc1cccc(NC(=O)CSc2nnc(CNC(=O)c3ccccc3F)o2)c1	2	11%	.	16%
51	CC(=O)N1CCOc2ccc(S(=O)(=O)NCc3ccc(C)cc3)cc21	-1	6%	-3.4	5%
52	COc1ccc(C(C)NC(=O)c2ccoc2C)cc1OC (stereo not given)	12	9%	2.5	14%

nr	ClpP mod	TRPV1 PAM	gsp ag
46	.	6	5%[15.4 µM]
47	0.6%	-19	-32%[inhibitor]
48	.	-1	-23%[15.4 µM]
49	.	-10	12%[15.4 µM]
50	1.4%	-12	9%
51	1.5%	2	37%
52	1.4%	0	3%
